# PINK1 modulator: A Quantitative High throughput Screen to Identify Chemical Modulators of PINK1 Expression. PINK1 immunofluorescence, high-content cytometry, 24 h. Potency, µM (doses to about 76.6 µM), for the others: at the highest dose activation (PINK1 increase), most hits filed as activators. 410,000 compounds, 0.2% hits; active = well fitted activation curve with a large enough effect; inconclusive = small, poorly fitted or top-dose-only effect; inactive = flat fitted curve, though single readings scatter; cell line not stated here;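 further: potency means the concentration at half of the fitted maximal effect; % of control where 0% means no effect; nearly all actives have a fitted effect of over 65% in size; a mitochondrial uncoupler was the plate control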
#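 A stable cell line was treated with compounds at 5 concentrations for 24 hours, with CCCP as control. PINK1 levels and mitochondrial localization were measured by immunofluorescence with mitochondrial, cell and nuclear markers after fixation, read by laser-scanning cytometry.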
# Six1-Eya2 inh: qHTS Assay for Inhibitors of the Six1/Eya2 Interaction | Homeobox protein SIX1 (Homo sapiens) + Protein phosphatase EYA2 (Homo sapiens), … | AlphaScreen GST-Six1/His-Eya2 binding, biochemical; hits give low values; control for the full effect not named in the record | AID 651725, 2012 | activity change, % (test concentration not listed) | 360,000 compounds, 0.56% hits; in the data active = activity change below about -65%; inconclusive = about -30% to -65%; inactive = above about -30%; further: on the % scale 0 is the no-effect control and ±100 the full control effect
# Target sequence (O00167 whole entry, looked up): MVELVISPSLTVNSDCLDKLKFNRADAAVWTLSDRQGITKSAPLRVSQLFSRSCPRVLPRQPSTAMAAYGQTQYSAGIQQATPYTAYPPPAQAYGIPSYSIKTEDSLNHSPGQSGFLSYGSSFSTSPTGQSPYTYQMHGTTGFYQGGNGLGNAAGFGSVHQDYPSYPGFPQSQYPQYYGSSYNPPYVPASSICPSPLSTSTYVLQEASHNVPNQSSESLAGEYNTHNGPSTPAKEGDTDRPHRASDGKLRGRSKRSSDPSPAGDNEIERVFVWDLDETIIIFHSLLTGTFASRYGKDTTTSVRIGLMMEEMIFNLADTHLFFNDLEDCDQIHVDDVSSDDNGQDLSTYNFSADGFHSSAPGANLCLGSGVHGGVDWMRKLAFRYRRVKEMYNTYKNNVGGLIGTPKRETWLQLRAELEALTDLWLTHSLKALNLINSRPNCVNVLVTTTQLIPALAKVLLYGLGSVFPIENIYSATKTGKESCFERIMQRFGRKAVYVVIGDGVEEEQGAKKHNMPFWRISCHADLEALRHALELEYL
# Target sequence (Q15475 whole entry, looked up): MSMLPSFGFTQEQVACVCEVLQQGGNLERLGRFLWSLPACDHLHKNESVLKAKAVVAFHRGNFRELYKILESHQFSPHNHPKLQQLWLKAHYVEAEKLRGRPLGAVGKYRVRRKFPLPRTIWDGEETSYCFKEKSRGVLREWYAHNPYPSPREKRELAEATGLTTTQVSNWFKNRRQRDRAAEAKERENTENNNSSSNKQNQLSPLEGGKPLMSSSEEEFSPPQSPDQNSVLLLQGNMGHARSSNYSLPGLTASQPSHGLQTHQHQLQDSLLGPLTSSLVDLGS
#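 AlphaScreen luminescence read after one hour at 37 °C in darkness. Pin-transferred compounds met GST-Six1 and His-Eya2 protein (5X stock 250 nM/500 nM) plus glutathione donor and Ni-chelate acceptor beads (5X, 50 ug/mL).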
# CtBP-E1A blk: qHTS Assay for Inhibitors of the CtBP/E1A Interaction. 340,000 compounds, 0.49% hits. activity change, % (no concentration beside the values). CtBP / adenovirus E1A interaction (AlphaScreen). AlphaScreen GST-E1A/His-CtBP binding, 1536-well; hits give low values; control for the full effect not named in the record. AID 651724, 2012; in the data active means activity change below about -65%; inconclusive means about -30% to -65%; inactive means above about -30%; further: on the % scale 0 is the no-effect control and ±100 the full control effect
#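 GST-E1A and His-tagged CtBP (125 nM each as 5X stock) were preincubated with pin-transferred compound for 2 h at 37 °C in the dark, then glutathione donor and nickel acceptor beads were added for 1 h before AlphaScreen reading.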
# D2 ag: Beta-Arrestin HTS for Positive Allosteric Modulators of the Human D2 Dopamine Receptor: Agonists | 360,000 compounds, 0.084% hits | AID 624465, 2012 | activation, % (test concentration not listed) | DiscoveRx PathHunter D2 beta-arrestin, luminescence, 90 min; 100% = 57 uM dopamine signal; in the data active = activation above about 40%; inconclusive = about 15% to 40%; inactive = below about 15%; further: compound concentration not given in the record; the text of the record calls up to 30% inactive
#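 DiscoveRx PathHunter D2 beta-arrestin cells (2,100/well) attached overnight, then compound-stimulated 90 min at 37 C in HBSS/10 mM HEPES/0.1% Tween-20 buffer; beta-galactosidase complementation read by luminescence after 1 h at ambient temperature. Dopamine 57 uM final (EC100) as control.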
# TRPML1 ag: qHTS for Agonists of the Human Mucolipin Transient Receptor Potential 1 (TRPML1) | Mucolipin-1 (Homo sapiens), Q9GZU1 | AID 624414, 2012 | 410,000 compounds, 0.12% hits | activation, % (concentration not given with the values) | TRPML1-expressing cells, Ca2+ dye fluorescence, FDSS; host cell line not named in the record; reference of the full effect not given here; in the data active = activation above about 50%; inconclusive = about 30% to 50%; inactive = below about 30%; further: 0% is about no effect; the text of the record puts the active cut at 80%
#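 Tetracycline-induced TRPML1-DL cells are seeded and incubated overnight before loading with a no-wash Ca2+ dye and quencher. Agonist activity is taken from the 110 s fluorescence read following compound pin-transfer on an FDSS, before EC80 54-4 challenge.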
# D2 potentiator: Beta-Arrestin HTS for Positive Allosteric Modulators of the Human D2 Dopamine Receptor: Potentiators; 360,000 compounds, 0.23% hits; potentiation, % (no concentration beside the values); DiscoveRx D2 beta-arrestin cells, luminescence, 90 min; 100% = 57 uM dopamine signal; D(2) dopamine receptor (Homo sapiens), P14416; active = potentiation of 50% or more; inconclusive = 30% to 50%; inactive = 30% or less;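 further: compound concentration not given in the record; tested on top of an EC20 dose of dopamine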
#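 PathHunter D2 cells, attached overnight at 37 deg C, received compound in DMSO plus dopamine at EC20 (50 nM final) for 90 min at 37 deg C. Beta-arrestin recruitment was read as luminescence after 1 h with detection reagent at ambient temperature.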
# An asterisk follows results filed as active; ? = inconclusive; . = no result given; & = joins results of further samples; [ ] = dose if it differs, or a comment.
# Sample of the layout:
# Every second line gives: PINK1 modulator | Six1-Eya2 inh | CtBP-E1A blk | D2 ag | TRPML1 ag | D2 potentiator
- O=C(NC(=S)Nc1ccccc1N1CCOCC1)c1ccc(Br)cc1
 : 1.0% | -21.2 | -27.8 | -5.4 | -0.3 | -13.5
- Cc1cc(NC(=O)NC2CC(=O)N(c3ccc4c(c3)OCCO4)C2)no1 (stereo not drawn)
 : 1.8% | 8.1 | 4.2 | 2.8 | -0.2 | 0.3
- Cc1ccc2oc(-c3cccc(NC(=O)c4cc(-n5cnnc5)ccc4Cl)c3)nc2c1
 : ? | -0.2 | 0.1 | 1.1 | -0.5 | 6.5
- CCOc1c(C)cc(-c2ncccc2O)cc1C
 : 41.1%[38.3 µM] | 4.4&0.0 | 6.8&16.6 | -4.0&-0.2 | -0.8&1.5 | ?
- Cc1ccc(N2CCN(C(=O)c3cn(CC4CCCCC4)nn3)C(C)C2)cc1 (stereo not drawn)
 : 13.8% | -17.5 | -18.6 | -0.4 | 1.3 | -5.0

# Results (from the top)
# Every second line gives: PINK1 modulator | Six1-Eya2 inh | CtBP-E1A blk | D2 ag | TRPML1 ag | D2 potentiator
- O=C(NC(=S)Nc1ccccc1N1CCOCC1)c1ccc(Br)cc1
 : 1.0% | -21.2 | -27.8 | -5.4 | -0.3 | -13.5
- Cc1cc(NC(=O)NC2CC(=O)N(c3ccc4c(c3)OCCO4)C2)no1 (stereo not drawn)
 : 1.8% | 8.1 | 4.2 | 2.8 | -0.2 | 0.3
- Cc1ccc2oc(-c3cccc(NC(=O)c4cc(-n5cnnc5)ccc4Cl)c3)nc2c1
 : ? | -0.2 | 0.1 | 1.1 | -0.5 | 6.5
- CCOc1c(C)cc(-c2ncccc2O)cc1C
 : 41.1%[38.3 µM] | 4.4&0.0 | 6.8&16.6 | -4.0&-0.2 | -0.8&1.5 | ?
- Cc1ccc(N2CCN(C(=O)c3cn(CC4CCCCC4)nn3)C(C)C2)cc1 (stereo not drawn)
 : 13.8% | -17.5 | -18.6 | -0.4 | 1.3 | -5.0
- COc1ccccc1OS(=O)(=O)c1ccc(NC(C)=O)cc1
 : -0.4% | 11.2 | 7.2 | -0.7 | 0.4 | -1.1
- COc1cc(OC)cc(C(C(=O)NCc2ccccc2)N(Cc2ccco2)C(=O)c2ccno2)c1 (stereo not drawn)
 : -1.3% | -5.4 | -10.5 | -3.1 | 0.3 | -16.9
- COc1cc(C(=O)N2CCN(c3ccccc3Cl)CC2)ccc1OCC(=O)N1CCOCC1
 : 1.6% | -4.3 | . | -2.4 | -0.5 | -1.1
- COc1cc2nc(CN3CCN(S(=O)(=O)c4ccccc4[N+](=O)[O-])CC3)[nH]c(=O)c2cc1OC
 : 18.5% | ? | -5.6 | 0.1 | -0.7 | -8.9
- O=C(O)c1cc(=O)c2ccccc2[nH]1
 : -0.2% | -8.8 | -12.3 | -2.8 | . | -32.6
- Cc1ccn2cc(CCNC(=O)c3ccc(Br)o3)nc2c1
 : 0.0% | -4.8 | -4.4 | 3.3 | -0.1 | -8.4
- CCCN(C(=O)c1cc(S(=O)(=O)N(C)c2ccccc2OC)ccc1C)C1CCS(=O)(=O)C1 (stereo not drawn)
 : 1.8% | 3.1 | -4.8 | -0.3 | 0.1 | -3.8
- CC(C)=CCN1CCN(CCCc2ccccc2)CC1CCO (stereo not drawn)
 : -0.6% | 2.9 | -3.8 | -5.7 | 0.0 | -4.3
- Cc1ccc(S(=O)(=O)NCc2ccccc2)cc1C(=O)NC1CCC(C)CC1 (stereo not drawn)
 : -1.3% | -8.2 | -5.9 | -0.7 | -0.9 | -15.4
- COc1cc(/C=C/C(=O)Nc2cc(S(=O)(=O)N3CCOCC3)ccc2N2CCCC2)cc(OC)c1OC
 : 4.7% | -0.6 | 0.0 | 1.6 | -0.2 | -0.7
- CCNS(=O)(=O)c1ccc(CCC(=O)N2CCN(c3ccccc3)CC2)cc1
 : -1.3% | 2.9 | . | -2.0 | -0.1 | 6.0
- Cc1cccc(C)c1-n1nnnc1C(c1ccnc2ccccc12)N(C)Cc1ccc(Cl)c(Cl)c1 (stereo not drawn)
 : 3.3% | 11.2 | -6.8 | . | 0.7 | .
- Cc1occc1C(=O)Nc1ccc(S(=O)(=O)N2CCCC2)cc1
 : 1.2%[38.3 µM] | -7.3 | -9.4 | -2.4 | -0.3 | -12.0
- Nc1ccc(OCc2ccco2)cc1
 : -0.2% | -4.5 | -4.8 | 1.2 | 0.3 | -5.1
- O=C(CSc1ccccc1)Nc1ccc(S(=O)(=O)NCC2CCCO2)cc1 (stereo not drawn)
 : . | -0.3 | 7.6 | 0.9 | -0.6 | -10.6

# (continued)
# Every second line gives: PINK1 modulator | Six1-Eya2 inh | CtBP-E1A blk | D2 ag | TRPML1 ag | D2 potentiator
- COCc1[nH]nc2c1C(c1ccc(OC)cc1)C(C#N)=C(N)O2 (stereo not drawn)
 : -1.0% | 1.9 | -9.8 | 3.3 | 0.0 | 0.8
- Cc1ccc(Nc2nnc(C(C)(C)C)c(=O)n2N)cc1
 : 3.2% | 2.0 | 11.6 | -1.8 | -0.2 | -27.6
- COc1ccc(C(=O)NNC(=O)COC(=O)c2sccc2C)cc1
 : 3.5% | 8.1 | . | -5.8 | -0.9 | -21.7
- CCOC(=O)C1=NN(C(C)=O)C2C(=O)N(CC)C(=O)C12 (stereo not drawn)
 : -1.1% | -4.7 | . | 1.5 | 0.0 | 3.8
- COc1cc2c(cc1NC(=O)CSc1ccc(Cl)cc1)oc1ccccc12
 : 8.5% | 3.4 | 5.5 | -3.8 | -0.2 | -4.9
- C[C@H](CO)N1C[C@H](C)[C@@H](CN(C)Cc2ccc3cccnc3c2)OCc2cnnn2CCCC1=O
 : -0.6% | 9.0 | -19.4 | -4.6 | 0.2 | -2.3
- O=C(NCc1ccccc1Cl)[C@H]1CCCN1C(=O)[C@H]1CCCN1C(=O)c1ccccc1
 : 0.9% | -6.7 | 1.5 | . | 0.9 | .
- O=C(CN1C(=O)c2ccccc2C1=O)NNC1=NS(=O)(=O)c2ccccc21
 : 0.0% | 11.0 | 3.7 | -0.9 | 0.0 | 2.5
- COc1ccc(S(=O)(=O)N(C)c2ccc(C(=O)Nc3ccccc3C(=O)N3CCOCC3)cc2)cc1OC
 : -0.7% | 27.3 | -5.8 | 1.7 | -0.5 | -8.2
- COc1cc2c(cc1OC)C(C)N(S(=O)(=O)c1cn(C)c(C)n1)CC2 (stereo not drawn)
 : 0.6% | 3.0 | -0.2 | -5.1 | -0.3 | -10.2
- Cc1ccc(NC2CCCN(C(=O)CCc3ccncc3)C2)cc1C (stereo not drawn)
 : -0.2% | 2.2 | 8.6 | 7.5 | -0.3 | 1.3
- CCCCN(C=O)c1c(CC)nc2ccc(C(=O)NCCN(C)C)cn12
 : 3.4% | 11.1 | -6.2 | -6.1 | -0.3 | -11.6
- CCOCC(=O)Nc1nnc(SCCOC)s1
 : -0.9% | -1.3 | 8.8 | 4.1 | 0.7 | 3.6
- CCc1ccc(OCC(=O)NNC(=O)C2CCN(c3ncnc4sc(C)c(C)c34)CC2)cc1
 : -1.1% | -17.1 | -3.7 | 1.6 | 2.1 | -5.0
- C[C@@H]1Cn2cnc(C(=O)Nc3cccc(Cl)c3)c2C(=O)N1
 : -1.4% | -2.9 | 1.8 | -1.4 | . | .
- Cc1cccc(S(=O)Cc2ccc(C(=O)N3CCN(C(=O)c4ccco4)CC3)o2)c1 (stereo not drawn)
 : -0.9% | -0.2 | 3.5 | 6.8 | 0.6 | -6.4
- CCOc1cc(/C=N/NC(=O)c2cc(-c3ccccc3)nc3ccccc23)ccc1O
 : 2.7% | ? | -16.7 | 0.9 | 0.7 | -9.4
- CCC1CCCCN1Cc1nc2c(c(=O)n(C)c(=O)n2C)n1CCCc1ccccc1 (stereo not drawn)
 : 0.6% | 1.9 | -0.4 | -0.7 | -0.1 | 1.6
- CN1CCN(c2ccccc2NC(=O)c2cc3ccccc3o2)CC1
 : 0.0%[38.3 µM] | 4.8 | 5.6 | -3.0 | 0.9 | -20.2
- CCN(CC)c1ccc(-c2nnc(SCC(=O)N(CCOC)c3c(N)n(CC(C)C)c(=O)[nH]c3=O)o2)cc1
 : -0.3% | -10.7 | 5.5 | 1.1 | -0.6 | -5.8

# Other results follow.
SMILES	PINK1 modulator	Six1-Eya2 inh	CtBP-E1A blk	D2 ag	TRPML1 ag	D2 potentiator
O=C(CSc1nnc(NC(=O)c2c(F)cccc2Cl)s1)Nc1ccccc1F	0.7%	-6.1	7.9	3.7	-0.3	12.3
CCC(=O)Nc1ccc(NC(=S)NC(=O)c2oc3ccccc3c2C)cc1	9.7%	-0.3	-4.0	-1.8	0.1	-29.5
CCOc1ccc(NC(=O)c2cccc(NC(C)=O)c2)cc1S(=O)(=O)N1CCCC1	1.6%	-9.3	-3.3	-0.5	-0.4	-14.6
CCOc1ccc(NC(=O)CNC(=O)c2cccs2)cc1	1.6%	1.4	.	-3.6	-0.7	-11.0
CC(=O)c1c(C)nn(CC(O)COc2ccc3ccccc3c2)c1C (stereo not drawn)	1.7%	-1.9	5.5	1.5	-1.2	11.9
Cc1cc(NC(=O)c2ccc3c(c2)C(=O)N(CCC(C)C)C3=O)no1	4.5%	-2.2	5.2	-1.8	-0.9	-8.4
O=C1/C(=C/c2cccc(Cl)c2)SC(=S)N1CCC(=O)N1CCCCC1CCO (stereo not drawn)	-2.0%	-9.6	.	6.1	-0.9	-10.6
CC(C)[C@H](NC(=O)c1ccc(Br)cc1)C(=O)NC1CCCCC1	13.7%	-0.4	5.4	4.9	1.7	0.8

# (cont.)
SMILES	PINK1 modulator	Six1-Eya2 inh	CtBP-E1A blk	D2 ag	TRPML1 ag	D2 potentiator
CC1=NN(c2ccccc2)C(=O)/C1=C/c1cccs1	8.5%	-6.9	-4.0	-4.8	0.1	-7.7
CCOC(=O)c1cnn(-c2ccccc2)c1-n1cccc1C(=O)C(=O)Nc1ccc(F)cc1	2.1%	-8.4	-13.5	0.0	-0.4	-1.2
O=C(COC(=O)CCNS(=O)(=O)c1cccc(C(F)(F)F)c1)NC(=O)NC1CCCCC1	7.1%[38.3 µM]	-1.2	3.7	-1.2	0.6	4.9
CCOC(=O)Nc1ccc2c(CN(C)Cc3ccc(F)cc3)cc(=O)oc2c1	5.3%	1.6	-8.1	-0.8	-0.6	-4.2
O=C(Cc1ccccc1)NCCSCc1ccc(Cl)cc1	-0.7%	3.9	-0.2	-4.2	3.0	0.3
COC(=O)C1CC2=C(CC(C)(C)CC2=O)N(c2ccccc2)C1=O (stereo not drawn)	-0.2%	0.5	-1.1	-1.9	0.1	-5.3
CCN(CC(=O)NC(C)(C)C)C(=O)CN1c2cccc3cccc(c23)S1(=O)=O	-0.9%	0.8	13.4	-1.2	-0.3	7.7

# Assay outcomes: PubChem BioAssay, National Center for Advancing Translational Sciences (NCATS)
